Screening data: PubChem BioAssay, several laboratories
PABP polyA inh: blocks human PABP binding to poly(A) RNA; P11940; fluorescence polarization; inhibition, % at 35 µM; actives 1% (n = 290,000); AID 2014;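 active = 50% or more with normal probe brightness, or confirmed in later tests; inconclusive = above 50% with abnormal brightness, or retests that disagree; inactive = below 50% or failed in later tests; about a fifth of its hits are not listed in these tables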;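 note: calls also rest on retests at 20 µM and on dose response follow-up; controls were probe without protein and protein plus probe with vehicle; some compounds called inactive have numbers as strong as hits; many hits fall short of the cut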
Target sequence (P11940 whole entry, looked up): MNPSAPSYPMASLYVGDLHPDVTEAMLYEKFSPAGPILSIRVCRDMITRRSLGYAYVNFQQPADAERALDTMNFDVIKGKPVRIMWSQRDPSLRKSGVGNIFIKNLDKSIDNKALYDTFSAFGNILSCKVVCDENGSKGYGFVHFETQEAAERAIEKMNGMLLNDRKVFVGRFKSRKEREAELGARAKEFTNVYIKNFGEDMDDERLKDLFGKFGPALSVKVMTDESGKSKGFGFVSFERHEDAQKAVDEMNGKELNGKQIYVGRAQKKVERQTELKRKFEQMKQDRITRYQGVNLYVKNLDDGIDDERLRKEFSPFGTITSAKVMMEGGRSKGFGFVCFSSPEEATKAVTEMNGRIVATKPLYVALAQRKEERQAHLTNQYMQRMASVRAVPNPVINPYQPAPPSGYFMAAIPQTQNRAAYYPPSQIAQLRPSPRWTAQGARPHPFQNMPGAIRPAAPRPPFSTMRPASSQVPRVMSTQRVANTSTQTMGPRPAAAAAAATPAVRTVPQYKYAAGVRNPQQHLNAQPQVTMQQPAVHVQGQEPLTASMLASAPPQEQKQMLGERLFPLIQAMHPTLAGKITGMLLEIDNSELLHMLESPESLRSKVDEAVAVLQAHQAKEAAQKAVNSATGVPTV
MT1-MMP act inh: blocks activation of human MT1-MMP; actives 0.061% (n = 360,000); GFP/RFP ratio change, % at 20 µM; HT1080 RFP-PRO-GFP cells, GFP/RFP ratio fluorescence, overnight; percent of plate control window, DMSO zero; P50281;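 active = GFP/RFP ratio change of at least 30% with cell ATP level not reduced by more than half and red fluorescence within 50% of control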; note: strong numbers were not always called active
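Material – HT1080 RFP-PRO-GFP cells · Control set – DMSO wells and RFP-L50D-GFP cells · Incubation – overnight cell settling, then overnight compound exposure, 37 °C, 5% CO2 · Compound dosing – single-point 20 µM compound, 1% DMSO · Read-out – GFP/RFP fluorescence ratio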
eIF4H inh: inhibitors of RNA binding by human eIF4H. Q15056. eIF4H fluorescence polarization binding assay. inhibition, % at 35 µM. actives 0.94% (n = 290,000). AID 2012;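 active = 50% or more with normal probe brightness, or confirmed in later tests; inconclusive = above 50% with abnormal brightness, or retests that disagree; inactive = below 50% or failed in later tests; about a fifth of its hits are not listed in these tables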;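 note: calls also rest on retests at 20 µM and on dose response follow-up; 0% = protein and probe with vehicle and 100% = probe without protein; strong numbers were not always called active; many hits fall short of the cut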
Env fusion inh: HIV envelope-mediated fusion inhibition | actives 1.1% (n = 360,000) | HeLa-JRFL Env/CEM21 cell fusion, luciferase | inhibition, % at 12.3 µM;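 active = mean replicate inhibition score of at least 50 and every replicate individually at or above 50; inconclusive = only one of the two criteria met; inactive = mean below 50 and not all replicates reaching 50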;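 note: 0% = plate neutral controls and 100% = maraviroc near 300 nM; one replicate is shown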
Rce1 inh: yeast Ras-converting enzyme inhibition; AID 2563; actives 0.27% (n = 290,000); yeast membranes, quenched prenylated peptide cleavage fluorescence; Q03530; calls only;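 active = fall in fluorescence gain of 50% or more versus controls, with final raw signal at or below 3038400; inconclusive = same 50% fall but final raw signal above 3038400; inactive = fall in fluorescence gain under 50%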;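 note: plate controls were neutral control wells for no effect and wells lacking membranes for full effect; tested at 10 µM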
Target sequence (Q03530 whole entry, looked up): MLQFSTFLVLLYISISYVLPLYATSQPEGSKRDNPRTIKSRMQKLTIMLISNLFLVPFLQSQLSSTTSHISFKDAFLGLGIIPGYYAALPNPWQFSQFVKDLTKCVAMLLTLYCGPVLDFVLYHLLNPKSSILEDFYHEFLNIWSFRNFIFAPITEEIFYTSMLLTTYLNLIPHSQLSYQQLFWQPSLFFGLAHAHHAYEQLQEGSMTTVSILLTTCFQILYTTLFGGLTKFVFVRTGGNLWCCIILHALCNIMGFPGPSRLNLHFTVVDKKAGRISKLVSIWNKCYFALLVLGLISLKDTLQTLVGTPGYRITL
CSC inhib: cancer stem cell inhibition. actives 1.1% (n = 300,000). cancer stem cell-like cells viability, luminescence. inhibition, % at 7.5 µM;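 active = mean at 75% or more and at least half the replicates too; inconclusive = mean and replicates disagree; tested in HMLE shEcad cells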;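 note: 0% = median of negative and 100% = median of positive control wells; the first replicate is given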
UUG fidelity: yeast start codon fidelity modulation; S. cerevisiae UUG-firefly luciferase reporter, luminescence/redox ratio; activity score, % at 18.7 µM; actives 0.13% (n = 350,000); AID 602363;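 active = replicate mean at a twofold rise or more, about +100% in these data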;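 note: firefly luciferase made from a UUG start codon reports start codon fidelity; reporter light over untreated wells divided by growth signal over untreated wells; some hits fall short of that in this replicate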
eIF4H inh retest: also measured in eIF4H inh; calls as there; inhibition, %; compound at 20 µM; confirmation average;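 mean of two retest wells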
PABP polyA inh retest: recorded beside PABP polyA inh, whose call it bears; inhibition, %; compound at 20 µM; confirmation repeats;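 mean of two retest wells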
MT1-MMP act inh RFP: second read-out of MT1-MMP act inh, no call of its own (marks repeat the call); RFP signal change, %; measured here: RFP expression control read;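 0 = vehicle wells; hits needed this value within 50% of zero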
* marks the source's active call; other numbers are inactive results; i = inactive; ? = inconclusive; . = not tested or not shown; + = active, no number; & = joins results of further samples. An excerpt; count on the stated rates, not on these rows.

SMILES	PABP polyA inh	MT1-MMP act inh	MT1-MMP act inh RFP	eIF4H inh	Env fusion inh	Rce1 inh	CSC inhib	UUG fidelity	others
OC(CN1CCOCC1)c1csc2ccccc12 (configuration not stated)	.	5	2	.	-9	i	-7	.
CC(=Nc1ccc(F)cc1)c1c(O)n(C)c(=O)[nH]c1=O	-3	5	5	-9	4	.	-8	-24
CN1C(=O)C(Cc2ccc(OCc3ccccc3)cc2)C(=O)N(C)C1=O	-4	3	1	-13	7	i	-15	-1
Cc1ccc(Cc2c(C)nc3nc(SCC(=O)N4CCC5(CC4)OCCO5)nn3c2C)cc1	5	1	-2	-6	27	i	-12	.
CCCc1nc2ccccc2c(=O)n1-c1ccccc1OC	-15	0	-3	-9	.	i	1	-9
COc1ccccc1OC(=O)c1ccc(C)c(S(=O)(=O)N2CCOCC2)c1	-7	-1	-4	-3	-7	i	.	-12
CC(=O)Nc1cccc([As](=O)(c2cccc(NC(C)=O)c2)c2cccc(NC(C)=O)c2)c1	-9	.	.	-5	4	i	-4	-7
C=CCn1c(O)c(/C=C2/C=c3ccccc3=N2)c(=O)[nH]c1=S	-23	0	5	3	19	i	-3	-2
CCOC(=O)c1cnc(SCc2ccc(Cl)c(Cl)c2)nc1N1CC1	.	28	-10	.	-49	.	.	-14
C=CCN(CC=C)Cc1c[nH]c2ccccc12	3	.	.	-9	.	i	-13	.
O=c1[nH]c(=O)n(Cc2ccc(F)cc2)c(O)c1C=Nc1ccc(Cl)cc1	-5	-19	3	?	-6	i	0	.
CC(C)(C)NC(=S)/N=C(\N)N[N+](=O)[O-]	-4	5	-2	3	9	i	-5	-11
CC(C)N(CC(O)c1cccc([N+](=O)[O-])c1)C(C)C (configuration not stated)	8	1	4	6	17	i	-2	-20
O=C1NC(=O)C(Cc2cccs2)C(=O)N1	-8	6	2	2	-97	i	9	-13
CCS(=O)(=O)N1CCCC(C(=O)N2CCC3(CC2)OCCO3)C1 (configuration not stated)	-5	5	7	-5	.	i	10	-12
CCN(CC)C(=O)c1ccc(NC(=O)c2cccc(S(=O)(=O)N3CCN(C)CC3)c2)cc1	12	-2	-2	7	-28	i	-3	5
CCOC(=O)c1c(/N=C/c2c(O)n(-c3ccc(F)cc3)c(=S)[nH]c2=O)sc2c1CCCC2	-1	-11	6	4	7	i	.	.
CCOC(=O)CC1c2ccccc2-n2nncc2CN1Cc1ccc(OC)cc1 (configuration not stated)	.	3	3	.	-2	.	.	0
Cc1cccc(N2CCN(Cc3ccc4c(c3)OCO4)CC2)c1C	22	0	-4	8	11	i	27	-8
COc1cc(C(=O)NN=Cc2ccc(N(CCCl)CCCl)cc2)cc(OC)c1OC	.	2	1	.	-63	.	.	-13
O=NN1CCCCC1	.	0	4	.	.	.	-16	-6
COC(=O)C1=C(c2ccc3ccccc3c2)C[C@@H]2CC[C@H]1N2C(=O)N1CCOCC1	.	-4	-3	.	13	.	21	-11
COc1ccc(CN2CCNCC2)cc1	0	10	7	-14	-5	i	-2	5
Cc1cc(OCC(=O)O)c2c3c(c(=O)oc2c1)CCCC3	8	-3	-9	0	.	i	4	-13
C=CCN1C(=O)/C(=C/c2ccc(N3CCOCC3)o2)C(=O)NC1=S	-7	-60	10	34	19	i	4	-8
CC1(c2ccc(Cl)cc2Cl)OCC(Cn2cncn2)O1 (configuration not stated)	9	-5	-7	0	7	i	-13	.
O=c1c(C=NCCN2CCNCC2)c(O)n(C2CCCCC2)c(=O)n1C1CCCCC1	0	-7	-7	-14	.	i	.	24
COC(=O)NC(=C(Cl)Cl)P(=O)(c1ccccc1)c1ccccc1	2	-3	3	-13	1	i	-17	.
CN1C(=O)/C(=C\c2ccc(Br)s2)C(=O)NC1=S	-11	.	.	12	4	i	16	98
O=C(c1ccccc1F)c1cn(CC(=O)N2CCOCC2)c2ccccc12	4	0	-1	5	-7	i	-10	-2
CCOC(=O)C(O)(c1ccc(NC(=O)Oc2ccccc2)cc1)C(F)(F)F (configuration not stated)	12	6	6	8	-7	i	-3	-6
CCC(=NCCc1c[nH]c2ccccc12)c1c(O)n(C)c(=O)n(C)c1=O	1	-1	-18	-7	81*	i	27	-24
CCCCCSc1cc(OC)c(CCN)cc1OC	-2	3	3	11	.	i	7	-9
Cc1cccc(-n2c(O)c(C=NCc3cccnc3)c(=O)[nH]c2=O)c1C	-4	2	2	-5	.	i	-1	-15
COC(=O)[C@@H]1C[C@H]1[C@@H](NP(=O)(c1ccccc1)c1ccccc1)c1ccccc1	2	14	10	-3	-9	i	7	-17
Cc1ccnc(-n2c(-c3ccco3)nc3ccccc3c2=O)c1	31	3	-4	-4	13	+	-1	-10
c1ccc(CCNCc2cccnc2)cc1	6	-1	1	-5	-13	i	-1	-6
Cc1ccccc1NP(=O)(Oc1ccccc1F)Oc1ccccc1F	-7	-2	2	4	19	i	2	-11
O=C([O-])c1ccc(-[n+]2c(-c3ccccc3)cc(-c3ccccc3)cc2-c2ccccc2)cc1	.	0	1	.	19	i	-9	-20
O=c1[nH]c(=O)n(CCc2ccc(F)cc2)c(O)c1/C=N/N1CCCCC1	-15	-2	-1	-3	-25	i	-2	.
COC(=O)C1=C(c2cc3ccccc3s2)C[C@@H]2CC[C@H]1N2C(=O)N1CCCCC1	.	2	-20	.	.	i	49	-8
Brc1ccc(Oc2ccc(Br)cc2Br)c(Br)c1	.	-4	3	.	.	.	29	13
C[C@H](CO)N1C[C@H](C)[C@H](CN(C)C(=O)Oc2cccc3ccccc23)OCc2cnnn2CCCC1=O	.	3	3	.	-67	.	.	2
c1ccc(CCn2nnnc2CN2CCC(n3nnc4ccccc43)CC2)cc1	7	-6	-9	2	-8	.	-8	-7
COc1ccc(Cn2c(N)c(C(=O)NCc3ccco3)c3nc4ccccc4nc32)cc1	6	-29	1	6	.	i	10	-12
Cc1cc(C)cc(N2C(=O)/C(=C\c3ccc(N4CCN(C)CC4)o3)C(=O)NC2=S)c1	?	-122	2	?	12	i	-9	19
O=C1c2ccccc2C(=O)N1Cc1nc2ccccc2c(=O)n1-c1ccc(Br)cn1	0	-4	-2	5	.	i	-10	-19
O=c1[nH]c(=O)n(-c2ccccc2)c(O)c1C=NC12CN3CN(CN(C3)C1)C2	-8	.	.	-4	-6	i	-16	.
COC(=O)C1=C(c2ccc(F)cc2F)C[C@@H]2CC[C@H]1N2C(=O)NCCO	.	3	1	.	21	.	-5	3
C=CCN1C(=O)CSc2ccc(C(=O)N3CCC4(CC3)OCCO4)cc21	0	6	1	5	-24	i	-5	3
Cc1ccc[n+](CC(O)Cn2c3ccccc3c3ccccc32)c1 (configuration not stated)	2	2	-5	-2	-17	i	6	-4
CCC(Oc1cc(Cl)ccc1Cl)C(=O)N1CCC2(CC1)OCCO2 (configuration not stated)	4	3	2	-2	13	i	-5	-16
C#CCN[C@H](C)Cc1ccccc1	.	-3	2	.	6	.	-11	5
O=S(=O)(NC1CCCCCCC1)OCC(Cl)(Cl)Cl	12	5	-1	6	-12	i	-16	-13
Cc1cccc(C(=O)NC(Oc2ccccc2)C(Cl)(Cl)Cl)c1 (configuration not stated)	6	-6	-5	-2	2	i	.	-20
CN1C(=O)C(=Cc2c(OCc3cnc(Cl)s3)ccc3ccccc23)C(=O)N(C)C1=O	-10	1	-3	18	-27	i	10	.
O=C1NC(=O)N(c2ccc3c(c2)OCO3)C(=O)/C1=C\c1ccc(-c2ccccc2C(=O)O)o1	?	-4	6	?	4	i	-9	.
O=C1NC(=O)N(Cc2ccccc2)C(=O)/C1=C\C=C\c1ccco1	13	-32	27	?	-340	i	?	-8
COC(=O)C1=C(c2ccccc2OCc2ccccc2)C[C@@H]2CC[C@H]1N2C(=O)NCc1ccc(OC)cc1	.	0	-4	.	9	.	6	-19
CCN1C(=O)C(=Cc2c(C)n(CC(=O)NCC3CCCO3)c3ccccc23)C(=O)N(CC)C1=S (configuration not stated)	-3	14	24	48	-14	.	4	-9

An excerpt from above in order of heavy-atom count, smallest number first:
SMILES	PABP polyA inh	MT1-MMP act inh	MT1-MMP act inh RFP	eIF4H inh	Env fusion inh	Rce1 inh	CSC inhib	UUG fidelity	others
Cc1cccc(C(=O)NC(Oc2ccccc2)C(Cl)(Cl)Cl)c1 (configuration not stated)	6	-6	-5	-2	2	i	.	-20
O=C1NC(=O)N(Cc2ccccc2)C(=O)/C1=C\C=C\c1ccco1	13	-32	27	?	-340	i	?	-8
CCN1C(=O)C(=Cc2c(C)n(CC(=O)NCC3CCCO3)c3ccccc23)C(=O)N(CC)C1=S (configuration not stated)	-3	14	24	48	-14	.	4	-9

Additional compounds.
SMILES	PABP polyA inh	MT1-MMP act inh	MT1-MMP act inh RFP	eIF4H inh	Env fusion inh	Rce1 inh	CSC inhib	UUG fidelity	others
C[n+]1ccc(-c2cc[n+](C)cc2)cc1	.	-3&1	0&4	.	41&15	.	-6	-5&-1
O=c1[nH]c(O)c(C=Nc2ccccc2Oc2ccccc2)c(=O)[nH]1	-5	.	.	-12	18	.	3	-8
CC1(C)CC(=O)C(C=NCCN2CCN(C(=O)Cc3ccc(F)cc3)CC2)=C(O)C1	17	3	0	0	-23	i	.	13
O=C(/C=C/c1ccccc1)c1c(O)n(CCc2ccccc2)c(=O)[nH]c1=O	1	-23	-25	-9	4	i	42	.
COC(=O)C1=C(c2ccc(C(C)=O)cc2)C[C@@H]2CC[C@H]1N2C	.	-1	2	.	6	.	-15	-16
O=C(Cn1nc(Cc2cccnc2)c2ccccc2c1=O)N1CCC2(CC1)OCCO2	11	-1	1	2	.	i	-4	.
O=C(CN1CC(c2ccccc2)CC1=O)Nc1ccccc1 (configuration not stated)	7	7	6	7	-11	i	9	-5
O=C1NC(=S)NC(=O)C1=Cc1cccc2cc3ccccc3cc12	11	-12	-6	98	-16	.	.	-13	eIF4H inh retest=24;PABP polyA inh retest=19
COc1ccc(C2(C#N)CC[N+](C)(C)CC2)cc1	16	4	5	-1	.	i	.	-17
Cc1ccccc1C1=NCC(=O)N(CC(=O)NCc2ccco2)c2sc3c(c21)CCCC3	-4	-2	-2	-4	.	.	-20	-19
CCOc1ccc(CN(CCCl)CCCl)cc1C(=O)OC	20	4	8	4	.	i	.	-17
CCOC(=O)COc1ccc(/C=C2\C(=O)NC(=S)N(c3ccc(OC)cc3)C2=O)cc1OC	-10	-2	0	-6	0	i	-9	-27
CCOc1cc2[nH]c(=S)n(CCCC(=O)N3CCC4(CC3)OCCO4)c(=O)c2cc1OCC	9	1	4	6	-2	i	-5	-17
N#CC1=C(N)Oc2c(c(=O)sc3ccccc23)C1c1ccncc1 (configuration not stated)	5	-2	-3	3	-5	i	42	.
OC1/C(=C/c2ccccc2F)N2CCC1CC2 (configuration not stated)	11	-2	0	-3	7	i	-5	.
O=c1[nH]c2c(c(=O)n1C1CCCCC1)CCC2	-5	4	6	-6	-8	i	2	-21
CCCNC(=O)c1c(N)n(CC2CCCO2)c2nc3ccccc3nc12 (configuration not stated)	7	-13	3	8	-34	i	-17	.
Oc1cccc2nc3ccccc3nc12	5	14	0	36	.	.	6	5
COc1cccc(-c2nn(CCC#N)cc2C(=O)Nc2ccccc2Cl)c1	3	0	-5	-7	12	i	-13	2
O=C1NCN(c2ccccc2)C12CCN(C(c1ccccc1OC(F)(F)F)c1nnnn1C1CCCC1)CC2 (configuration not stated)	.	5	-2	.	-12	.	.	-17
COc1ccc(C(=O)N2CCC3(CC2)OCCO3)cc1	15	-1	5	-4	5	i	-10	-13
